Insulin prom inh = inhibitors of insulin promoter-driven GFP, primary screen, imaging, TRM-6 cells (human fetal islet line), eGFP reporter, cell count; reporter expression induced with tamoxifen; inhibition, % at 2 µM; 0.9% of 130,000 active;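 active means inhibition above the mean plus 3 SD, with well images judged a real hit on visual review, cut at about 60% in these data, passing the limit was not always enough; inconclusive means inhibition over the cutoff but images rejected on review; inactive means inhibition not above the cutoff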
GALR2 ag = GALR2 receptor agonists, primary screen, cell-based. Galanin receptor type 2 (Homo sapiens), O43603. GALR2-expressing cells, agonist activation read-out. activation, %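 (tested at 5 µM)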. 0.48% of 140,000 active. AID 803, 2007;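 active means above mean plus 3 SD of all compounds, about 5% in these data, not always enough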;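 further: 0% = vehicle buffer wells and 100% = reference agonist at full effect; tested in CHO reporter cells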
Target sequence (O43603 whole entry, looked up): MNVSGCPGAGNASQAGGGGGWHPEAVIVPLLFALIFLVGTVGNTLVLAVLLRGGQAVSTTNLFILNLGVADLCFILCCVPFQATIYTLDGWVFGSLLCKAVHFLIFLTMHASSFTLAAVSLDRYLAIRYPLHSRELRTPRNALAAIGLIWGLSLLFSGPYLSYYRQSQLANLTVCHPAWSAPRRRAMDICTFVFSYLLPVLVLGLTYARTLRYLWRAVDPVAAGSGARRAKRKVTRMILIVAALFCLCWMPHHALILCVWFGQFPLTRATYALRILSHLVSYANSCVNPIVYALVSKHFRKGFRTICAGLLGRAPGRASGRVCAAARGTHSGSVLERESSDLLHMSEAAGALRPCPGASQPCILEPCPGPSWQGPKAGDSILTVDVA
PKD1 kinase inh = inhibitors of human PKD1 kinase, biochemical, fluorescence polarization | PKD1 kinase fluorescence polarization assay | inhibition, %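 (about 10 µM by stock and volumes)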 | 0.056% of 200,000 active | AID 797, 2007;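 active means inhibition of 50% or more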;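 further: controls were vehicle for no effect and a reference inhibitor for full effect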
HSV augment = enhancers of HSV replication in host cells, fold increase, host cell viability. HSV replication augmentation in cells. maximum fold increase. 0.005% of 220,000 active. AID 1956, 2009;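 active means peak rise of 1.5-fold or more in the series; inconclusive means self-fluorescent or not available for retest; tested in PC3 cells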;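 further: first round at 10 µM; read as green reporter fluorescence; hits show the peak of a series up to 25 µM; 1 = signal of infected wells without compound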
RGS16-Gao = modulators of RGS16 binding to Galphao, primary screen, biochemical, human proteins, multiplexed bead flow cytometry | bead-based flow cytometry RGS16-Galphao binding, fluorescence; actives lie on both sides | binding response (% of control), % at 10 µM | 0.38% of 220,000 active | AID 1441, 2008;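 active means below 25% or above 175%, edge rows of some plates excepted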;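 further: Galphao activated by GDP with aluminum fluoride before binding; 100% = wells without compound and 0% = beads without RGS; some results beyond the cut were filed as inactive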
Target sequence (O15492 whole entry, looked up): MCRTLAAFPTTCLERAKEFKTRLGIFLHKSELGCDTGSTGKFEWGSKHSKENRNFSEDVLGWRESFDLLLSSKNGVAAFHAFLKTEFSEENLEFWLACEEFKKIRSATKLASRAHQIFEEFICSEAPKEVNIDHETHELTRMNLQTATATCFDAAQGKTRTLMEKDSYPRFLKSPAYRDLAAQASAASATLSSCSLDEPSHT
Target sequence (P09471 whole entry, looked up): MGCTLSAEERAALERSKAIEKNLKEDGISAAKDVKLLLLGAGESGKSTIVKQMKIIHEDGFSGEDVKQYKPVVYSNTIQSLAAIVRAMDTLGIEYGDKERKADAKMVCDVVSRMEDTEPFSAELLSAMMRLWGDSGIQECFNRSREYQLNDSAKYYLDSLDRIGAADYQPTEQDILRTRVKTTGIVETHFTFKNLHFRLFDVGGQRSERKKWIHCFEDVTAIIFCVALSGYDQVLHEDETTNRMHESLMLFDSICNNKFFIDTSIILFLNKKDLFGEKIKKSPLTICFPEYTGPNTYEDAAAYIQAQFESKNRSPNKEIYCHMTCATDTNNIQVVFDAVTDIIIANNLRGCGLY
Insulin prom inh cell count = recorded beside Insulin prom inh, whose call it bears; normalized cell count, %; measured here: cell count, toxicity; reference of the scale not given here;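 cells exposed to compound for 48 h; stained nuclei by imaging scaled within each plate; lower means fewer cells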
HSV augment primary fold = second read-out of HSV augment, no call of its own (marks repeat the call); fold increase; compound at 10 µM; measured here: primary screen fold increase 10 uM; tested in PC3 cells;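 GFP signal in the first replicate; 1 = infected wells without compound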
The depositor's hits bear a star; i = inactive; ? = inconclusive; nt = no result given. An excerpt; count on the stated rates, not on these rows.

SMILES	Insulin prom inh	Insulin prom inh cell count	GALR2 ag	PKD1 kinase inh	HSV augment	HSV augment primary fold	RGS16-Gao
CN1C2CCC1CC(=NO)C2	nt	nt	nt	5	i	0.87	102
CCCCC(=O)N/N=C/c1c(O)n(C2CC2)c(=S)[nH]c1=O	14	149	-1.6	-12	i	0.97	92
CCOP(=O)(C#CC(C)(C)C)C1(O)CCCCC1 (stereo not given)	nt	nt	-0.3	-1	i	1	91
CCCCCn1c(=O)c(C(=O)NCc2ccco2)c(O)c2ccccc21	nt	nt	nt	-10	i	0.97	107
CC(C)N1CCN(Cc2cc3c(cc2Cl)OCO3)CC1CCO (stereo not given)	nt	nt	nt	nt	i	0.76	102
CCOP(=S)(OCC)SCC(=O)NC(C)(CC)C(=O)O (stereo not given)	-4	135	-2.1	-7	i	0.93	-105*
CSc1ccc(C(=O)C2CCCN(Cc3cccnc3)C2)cc1 (stereo not given)	nt	nt	nt	1	i	1.1	101
O=C1NC(=O)N(Cc2cccs2)C(=O)/C1=C/c1ccc(N2CCOCC2)cc1	nt	nt	nt	-7	i	1.1	98
O=C1OCCC1NC1=NCCC1 (stereo not given)	-15	66	-1.1	-6	i	1.2	111
CN(CC1COc2ccccc2O1)c1nc(-c2cccnc2)nc2ccccc12 (stereo not given)	nt	nt	1.9	8	i	0.85	47
CCCC(=O)Nc1cc(C(=O)N2CCC3(CC2)OCCO3)ccc1S(=O)(=O)c1ccc(C)cc1	-17	164	-1.7	-2	i	0.69	117
O=C(CN1C(=O)CCSc2ccccc21)N1CCC2(CC1)OCCO2	nt	nt	-0.7	3	i	0.95	95
O=C(Nc1ccccc1OC(=O)N1CCCCC1)N1CCCCC1	-33	56	-1.0	9	i	0.85	73
Cc1ccc(N2C(=O)NC(=O)C(CCc3ccccn3)(Cc3ccc(F)cc3)C2=O)cc1 (stereo not given)	-81	19	nt	-3	i	0.99	130
O=C1NC(=O)N(Cc2ccc(F)cc2)C(=O)/C1=C\c1ccc([N+](=O)[O-])s1	nt	nt	nt	nt	?	nt	93
C=CCN1CC[C@@]2(C)c3cc(O)ccc3CC1[C@@H]2C	nt	nt	nt	nt	i	0.88	114
Cc1ccc(CN2C3CCCC2CC(NC(=S)NCc2ccccc2)C3)cc1 (stereo not given)	nt	nt	nt	2	i	0.83	96
CC1CCCN(CC(=O)N2CCCc3ccccc32)C1 (stereo not given)	8	88	-0.9	4	i	0.71	110
CCC(=O)N1N=C2C3CCN(CC3)C2C1c1ccccc1 (stereo not given)	65	67	-1.2	5	i	0.7	106
C=CCn1c(O)c(C=NCCCOc2ccc(CC)cc2)c(=O)[nH]c1=S	nt	nt	-2.2	6	i	0.96	96
O=C(c1cccc([N+](=O)[O-])c1)C12CN3CN(CN(C3)C1)C2	nt	nt	nt	2	i	1.1	101
COc1ccccc1N=Nc1c(O)[nH]c(=S)[nH]c1=O	nt	nt	nt	-1	i	0.9	100
CN1C(=O)/C(=C\c2ccc(N3CCCCCC3)cc2)C(=O)NC1=S	nt	nt	nt	nt	i	1	94
C=CCn1c(O)c(/C(C)=N/NC(=S)Nc2ccccc2)c(=O)[nH]c1=O	nt	nt	nt	nt	i	1	70
Cc1ccc2c(c1)C1CN(C)CCC1N2C(=O)c1cccs1 (stereo not given)	nt	nt	nt	nt	i	1	96
CCOc1ccc2nc(N=Nc3c(O)[nH]c(=S)[nH]c3=O)sc2c1	nt	nt	nt	1	i	0.81	96
Cc1cc(/C=C2/C(=O)NC(=O)N(c3ccccc3)C2=O)c(C)n1-c1ccc(F)cc1	-120	76	-0.8	-21	i	0.99	nt
Cc1cc(Cl)nc(N)n1	15	104	-0.4	0	i	0.9	311
FC(F)=C(F)CCSc1ncn[nH]1	nt	nt	nt	2	i	1	102
Cc1c(C(=O)c2ccccc2)c2ccccc2n1C	nt	nt	nt	nt	i	0.95	96
CC12CN3C(O)C(C)(C1)CC(C)(C2)C3O (stereo not given)	9	100	-3.4	-1	i	0.82	102
O=[N+]([O-])c1ccc(N2CCCCCC2)c2ncccc12	30	115	nt	-10	i	0.94	101
Cc1nc2cc(C(=O)N3CCC4(CC3)OCCO4)ccc2n1-c1ccc(Br)cc1	33	134	-1.0	-12	i	0.89	114
CCN(CC)c1ccc(/C=C2\C(=O)NC(=O)N(CC3CCCO3)C2=O)cc1 (stereo not given)	0	109	-1.1	1	i	0.99	54
CN(C)C1(CNC(=O)c2ccc(Cl)c(S(=O)(=O)NCc3ccco3)c2)CCCCC1	-46	103	-1.3	-11	i	0.89	101
O=C(C1CC(c2ccc(F)cc2)=NO1)N1CCC2(CC1)OCCO2 (stereo not given)	0	140	-1.4	-5	i	0.86	99
Fc1cccc(F)c1CN1CCN(Cc2c(F)cccc2F)CC1	-15	107	-0.3	-5	i	0.99	99
COc1ccccc1N1CCN(Cc2c(F)cccc2Cl)CC1	3	107	-2.2	-1	i	0.88	102
O=C(c1cccs1)c1cn(Cc2ccccc2Cl)c2ccccc12	44	55	-1.5	-3	i	0.76	101
Cc1ccc(N2C(=O)NC(=O)/C(=C\c3cccn3C(C)(C)C)C2=O)cc1	-71	60	nt	0	i	1.2	103

Entries from the list above that have a Cl atom:
SMILES	Insulin prom inh	Insulin prom inh cell count	GALR2 ag	PKD1 kinase inh	HSV augment	HSV augment primary fold	RGS16-Gao
CC(C)N1CCN(Cc2cc3c(cc2Cl)OCO3)CC1CCO (stereo not given)	nt	nt	nt	nt	i	0.76	102
Cc1cc(Cl)nc(N)n1	15	104	-0.4	0	i	0.9	311
CN(C)C1(CNC(=O)c2ccc(Cl)c(S(=O)(=O)NCc3ccco3)c2)CCCCC1	-46	103	-1.3	-11	i	0.89	101
COc1ccccc1N1CCN(Cc2c(F)cccc2Cl)CC1	3	107	-2.2	-1	i	0.88	102
O=C(c1cccs1)c1cn(Cc2ccccc2Cl)c2ccccc12	44	55	-1.5	-3	i	0.76	101

Next compounds.
SMILES	Insulin prom inh	Insulin prom inh cell count	GALR2 ag	PKD1 kinase inh	HSV augment	HSV augment primary fold	RGS16-Gao
Cc1cc(/C=C2\C(=O)NC(=O)N(Cc3ccccc3)C2=O)c(C)n1-c1ccc(Cl)c(C(=O)O)c1	54	71	-0.5	-7	i	1.1	84
O=C(CCCn1c(=O)[nH]c2cc(Cl)ccc2c1=O)N1CCC2(CC1)OCCO2	-12	121	-1.1	0	i	0.9	98
Nc1ccccc1C(=O)OCc1ccc([N+](=O)[O-])cc1	-65	172	nt	-3	i	1	106
CC(=NCCCN1CCCCC1)c1c(O)n(Cc2ccccc2)c(=O)[nH]c1=O	nt	nt	-1.3	12	i	1	95
CC12CN3CCN(C1)CC(C)(C3)C2=NO	nt	nt	-2.0	1	i	0.92	107
COc1cc(/C=C2\C(=O)NC(=O)N(c3ccccc3)C2=O)cc(OC)c1OC	27	86	-2.4	10	i	0.95	89
CC(C)(C)P(=O)(N1CCOCC1)N1CCOCC1	nt	nt	nt	-6	i	1	101
CN1CSC(=S)N(C)C1	68*	101*	-1.5	3	i	0.88	93
Cc1ccc(S(=O)(=O)NC(Cc2cnc[nH]2)C(=O)O)cc1 (stereo not given)	-10	107	-0.2	11	i	0.98	109
CCCCn1c(=O)c(C(=O)Nc2nnc(C(C)C)s2)c(O)c2ccccc21	33	79	nt	7	i	1.1	105
CN1CCN(c2ncnc3nc[nH]c23)CC1	0	168	nt	6	i	0.95	108
C=CCn1c(O)c(C(CC)=NCCN2CCN(C(=S)NC)CC2)c(=O)[nH]c1=O	nt	nt	nt	nt	i	1.1	91
COc1ccccc1N1CCN(Cc2cnc(-c3ccccc3)[nH]2)CC1	nt	nt	nt	nt	i	0.97	97
CC(C)n1c(=O)c(C=Nc2cccc([N+](=O)[O-])c2)c(O)n(CCc2ccccc2)c1=O	57	38	-0.8	7	nt	nt	99
CCCCC/C(=N\O)c1c[nH]c2ccccc12	0	114	-1.6	-6	i	0.81	105
CCCNC(=O)c1c(N)n(Cc2ccco2)c2nc3ccccc3nc12	-6	141	18*	-3	i	0.95	78
O=C(CNC(=O)OCc1ccccc1)NCC(=O)Nc1ccc(Br)cc1C(=O)c1ccccc1	-78	55	-1.2	3	i	0.88	98
CC(=O)Cc1ccc(OC(C)C)cc1	nt	nt	nt	nt	i	1	106
COc1ccc(S(=O)(=O)NC(CC(=O)N2CCC3(CC2)OCCO3)c2ccco2)cc1 (stereo not given)	46	58	1.2	-2	i	0.98	98
O=[N+]([O-])c1ccc(N2CCCC2)c(F)c1Br	41	74	-1.2	-2	i	0.89	103
COc1cc2c(cc1OC)-c1c(OC)c(OC)c(OC)c3ccnc(c13)C2=O	-90	106	0.9	50*	i	0.73	101
O=C(Nc1ccccc1)N1CC2CC(C1)c1cccc(=O)n1C2 (stereo not given)	11	94	nt	0	i	1.1	105
COc1ccc2c(c1)c(CCN)c(C)n2Cc1ccccc1	nt	nt	nt	nt	i	0.79	101
Cc1ccc(C(=O)NC2CC3CCC(C2)N3)cc1 (stereo not given)	nt	nt	nt	3	i	0.92	100
N#CC1=C(N)Oc2cc(O)ccc2C1c1ccc2c(c1)OCO2 (stereo not given)	nt	nt	nt	7	nt	nt	100
CCCCCn1c(N)c(C(=O)NCc2cccs2)c2nc3ccccc3nc21	-20	119	1.8	1	i	0.84	99
CSC1=NP(=S)(SC)N2CCCC2=C1C#N (stereo not given)	-7	83	0.3	-2	i	1.2	110
O=C(c1csc2c1CCCCC2)N1CCC2(CC1)OCCO2	0	80	-1.6	-10	i	1	102
CC(C)c1ccc(N2C(=O)NC(=O)/C(=C\C=C\c3ccco3)C2=O)cc1	-90	58	nt	4	?	nt	102
O=C1NC(=S)NC(=O)C12C(c1ccccc1)NC(=S)NC2c1ccccc1 (stereo not given)	21	103	-2.2	-13	i	0.9	111
O=C(NC1(C(F)(F)F)Oc2ccc(Cl)cc2O1)N1CCC2(CC1)OCCO2 (stereo not given)	49	84	-3.9	-7	i	0.77	87
O=C1C2(c3ccccc3)CN3CN(C2)CC1(c1ccccc1)C3	-27	76	-3.6	-1	i	0.83	99
CC1(C)CSC(Nc2ccc(F)c(Cl)c2)=N1	15	57	0.2	0	i	0.75	109
O=C(c1ccccc1F)c1cn(Cc2ccccc2)c2ccccc12	17	159	-1.4	-2	i	1.1	96
C[C@H]1O[C@@H](O[C@H]2[C@@H](O)C[C@H](O[C@H]3[C@@H](O)C[C@H](O[C@H]4CC[C@@]5(C)[C@H](CC[C@@H]6[C@@H]5CC[C@]5(C)[C@@H](C7=CC(=O)OC7)CC[C@]65O)C4)O[C@@H]3C)O[C@@H]2C)C[C@H](O)[C@@H]1O	100*	0.4*	-0.2	-19	i	0.41	103
CC(=O)N(C1=NCCCS1)c1ccccc1Cl	8	74	nt	-2	i	1	102
CNCC(C)c1ccccc1 (stereo not given)	nt	nt	nt	0	i	0.94	117
CC(=O)OC1(c2ccccc2)CCN(C)CC1(C)C (stereo not given)	nt	nt	nt	3	i	0.96	37
c1ccc2cc(C3N4CCCN34)ccc2c1 (stereo not given)	-100	125	nt	-6	i	0.99	97
CSc1ncc(/C=C2/C(=O)NC(=O)N(C3CCCCC3)C2=O)cn1	15	70	-1.4	-9	i	1.1	101

Fetched by compound from the entries so far:
SMILES	Insulin prom inh	Insulin prom inh cell count	GALR2 ag	PKD1 kinase inh	HSV augment	HSV augment primary fold	RGS16-Gao
N#CC1=C(N)Oc2cc(O)ccc2C1c1ccc2c(c1)OCO2 (stereo not given)	nt	nt	nt	7	nt	nt	100
Cc1ccc(C(=O)NC2CC3CCC(C2)N3)cc1 (stereo not given)	nt	nt	nt	3	i	0.92	100
CCCCCn1c(N)c(C(=O)NCc2cccs2)c2nc3ccccc3nc21	-20	119	1.8	1	i	0.84	99

Next results follow:
SMILES	Insulin prom inh	Insulin prom inh cell count	GALR2 ag	PKD1 kinase inh	HSV augment	HSV augment primary fold	RGS16-Gao
CC1C(c2cccs2)=[N+]([O-])C(C)(C(=O)c2ccc(F)cc2)N1O (stereo not given)	-19	116	-2.5	-13	i	1.1	nt
COC(=O)C(O)(c1ccc(NC(=S)NC(=O)c2ccc(Cl)cc2Cl)c(C)c1)C(F)(F)F (stereo not given)	-31	91	1.2	-7	i	0.91	105
COc1ccc(CC(=O)Nc2ccc3c(C(F)(F)F)cc(=O)oc3c2)cc1OC	-7	97	-0.4	-9	i	0.9	109
COC(=O)c1c(N)n(Cc2ccc(OC)cc2)c2nc3ccccc3nc12	19	57	1.8	-5	i	0.79	100
O=C(Cn1ncc2c3ccccc3n(Cc3cccc(Cl)c3)c2c1=O)N1CCC2(CC1)OCCO2	-38	131	-1.1	-1	i	0.89	104

Source: PubChem BioAssay
